Assay outcomes (PubChem)
BJeLR viability = BJeLR cell viability loss; BJeLR (HRASV12) viability, CellTiter-Glo ATP luminescence, 48 h; reference of the scale not given here; inhibition, % (test concentration not listed); 300,000 compounds, 0.17% hits; AID 1554;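 active = replicate mean above 50%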;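 note: 50 nL library stock added to about 25 µL; numbers are from one replicate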
Sa ugtP lethal = compounds lethal to S. aureus RN4220 ugtP deletion mutant; OD600 growth, 16 h; some inactives read as strong as hits; growth inhibition, % (concentration not given with the values); 330,000 compounds, 0.54% hits; AID 1259309;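 active = z-score under -3 and OD600 up to 0.15 on both plates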;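 note: plate controls were untreated wells for no effect and antibiotic for full effect; wells of about 80 µL received 100 nL stock; the first replicate is given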
Mtb hypoxia inh = reduces hypoxia-regulated biosensor signal in M. tuberculosis | 300,000 compounds, 0.1% hits | fluorescence inhibition, % (test concentration not listed) | M. tuberculosis hypoxia-regulated fluorescent reporter, fluorescence;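 active = 35 to 45% if threefold the growth effect, above 45% if 1.5-fold the growth effect; inactive = the rest, general growth blockers included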;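 note: wells of about 50 µL received 100 nL stock; 0% = vehicle wells and 100% = reference inhibitor wells; whole bacteria with a GFP reporter of the hypoxia response; strong numbers were not always called active; many hits fall short of the cut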
Sa RN4220 lethal = S. aureus RN4220 growth inhibition; inhibition, % (no concentration beside the values); OD600, 16 h; 330,000 compounds, 0.33% hits;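 active = z-score of -3 or lower and OD600 up to 0.18 on both plates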;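 note: plate controls were untreated cells for no effect and reference antibiotic for full effect; stock transfer was 100 nL into about 80 µL; one replicate is shown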
Autofluor counter = counter-screen for toxin protease inhibitors: compound fluorescence. compound autofluorescence counterscreen, microsphere flow cytometry; stronger effect = higher value. fluorescence intensity (concentration not given with the values). 360,000 compounds, 3.1% hits;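 active = at least 3 SD above the mean of all compounds, about 16000 in these data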;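 note: 100 nL of 1 mM stock went into each well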
PrP 5UTR inh = inhibition of PrP 5' UTR reporter expression; cell-based PrP 5' UTR mRNA reporter, plate reader; inhibition, % (no concentration beside the values); 340,000 compounds, 0.35% hits;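 active = every replicate at 50% or more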;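 note: 0 = median of the neutral control wells; tested in H4 reporter cells; numbers are from one replicate; inactives centre near -14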
Mtb hypoxia inh growth = further read-out of Mtb hypoxia inh, marked with its call; growth inhibition, %; measured here: M. tuberculosis growth (absorbance);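 0% = vehicle and 100% = reference antibiotic; read after six days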
The depositor's hits bear a star; . = not tested or not shown.

Start of the data: the first two entries, to show the layout:
SMILES	BJeLR viability	Sa ugtP lethal	Mtb hypoxia inh	Mtb hypoxia inh growth	Sa RN4220 lethal	Autofluor counter	PrP 5UTR inh
CCOc1ccc(S(=O)(=O)Nc2cccc(C(=O)N(C)CC(=O)Nc3ccc(OC)cc3)c2)cc1	.	4	13	11	-1.3	3180	-7
CCC(C)CCN1C(Nc2ccccc2)=NCC1CC(C)C (centres undefined)	.	-17	3	10	2.6	.	.

The list itself, previewed entries included:
SMILES	BJeLR viability	Sa ugtP lethal	Mtb hypoxia inh	Mtb hypoxia inh growth	Sa RN4220 lethal	Autofluor counter	PrP 5UTR inh
CCOc1ccc(S(=O)(=O)Nc2cccc(C(=O)N(C)CC(=O)Nc3ccc(OC)cc3)c2)cc1	.	4	13	11	-1.3	3180	-7
CCC(C)CCN1C(Nc2ccccc2)=NCC1CC(C)C (centres undefined)	.	-17	3	10	2.6	.	.
CCN(CC)P(=O)(Nc1ccc(C)cc1Br)c1ccc(N(C)C)cc1NC(=O)c1ccco1 (centres undefined)	7	-1	3	-2	2.5	5304	-21
O=C(COC(=O)c1cc[n+]([O-])cc1)Nc1ccc(Cl)c(C(F)(F)F)c1	.	-2	5	9	4.9	.	.
CC(=O)c1cccc(NC(=O)CSc2n[nH]c(-c3ccncc3)n2)c1	.	0	-4	-2	2.5	4062	-11
Cc1cc(C(=O)N(CCC#N)Cc2cccs2)no1	8	10	10	8	4.9	4486	-2
OCCC1CN(C2CCN(c3ccccc3)CC2)CCN1Cc1ccc(F)c(F)c1 (centres undefined)	5	-1	0	4	2.4	4811	-27
Cn1nnnc1SCc1nnc(-c2ccccc2Br)o1	8	-14	.	.	-1.5	3071	-13
COc1ccc(NC(=O)CCNS(=O)(=O)c2ccccc2F)cc1S(N)(=O)=O	-13	5	1	17	5.0	5847	-9
COc1cccc(NC(=O)CN(C)S(=O)(=O)c2ccc3[nH]c(=O)oc3c2)c1	4	8	1	5	1.4	6023	-16
CC(=O)CSc1nnc(Cc2ccc([N+](=O)[O-])cc2)o1	0	-4	7	12	7.7	8954	-26
Cn1c(/C=C/c2cccc([N+](=O)[O-])c2)nc2ccccc2c1=O	-4	4	-1	11	1.5	5281	-17
COC(=O)CSc1nnc(CNC(=O)c2ccc(OC)cc2OC)n1C	-2	2	0	7	-0.5	10633	-1
CCC1=[N+](CC(=O)c2ccc(C)cc2)CCn2c(C)ccc21	5	-2	.	.	4.2	2434	-75
CCN(C(=O)CCN1C(=O)/C(=C/c2ccccc2)SC1=S)C1CCS(=O)(=O)C1 (centres undefined)	-5	-4	4	8	3.4	4903	-8
O=C(NCCC(=O)N(CCc1ccccc1)Cc1ccccc1)c1ccc(Br)cc1	2	13	6	5	-3.1	5781	-25
Cc1ccc(CNc2ncnc3c2cnn3-c2ccccc2)cc1	3	12	7	5	3.2	16965*	-13
O=C(c1cc(-c2ccccc2)nn1-c1ccccc1)N1CCN(S(=O)(=O)c2c(F)cccc2F)CC1	3	34	4	-5	-1.7	4801	-1
CC(C)Cn1c2c(c(O)c(C(=O)Nc3ccc(F)cc3)c1=O)CCCC2	-1	13	7	5	-21	3462	-17
Cc1ccc(OCC(O)Cn2nc(C)cc2C)cc1 (centres undefined)	-4	1	9	13	2.8	5735	-12
CCCc1ccc(OCCNC(=O)C2CCCCC2)cc1	2	13	9	10	-1.1	2947	-19
CCc1ccc(NC(=O)c2cc(-c3ccco3)on2)cc1	1	-6	2	1	2.6	24283*	-20
O=C(CNc1cccc([N+](=O)[O-])c1)N1CCN(S(=O)(=O)c2ccc(Cl)cc2)CC1	.	1	14	4	3.2	6321	-32
Cc1cc(C)nc(SCCCNCc2ccccc2)n1	7	2	-5	-3	3.5	3939	-30
COc1ccc(CCNc2oc(COc3ccccc3Cl)nc2C#N)cc1OC	-15	15	5	0	8.5	5933	-39
Cc1nn(Cc2ccccc2Cl)c2sc(C(=O)Nc3nccs3)cc12	-2	-13	2	4	16	2548	-13
COCc1cc(=O)[nH]c(N2CCN(C(=O)c3ccco3)CC2)n1	2	9	-2	-2	3.9	3959	-14
C=CCn1c(SCC(=O)/C(C#N)=C(\C)N)nnc1C1CCCCC1	0	0	0	1	3.2	8654	-22
CCOc1ccc(/C=N/NC(=O)C2CC2)cc1OC	6	.	.	.	.	7190	-6
C=CCn1c(SCCOC)nc2c1c(=O)[nH]c(=O)n2C	3	-7	9	6	-7.0	5617	-16
C=CCN(C(=O)c1csnn1)C(C(=O)NCc1ccccc1)c1ccccc1F (centres undefined)	-8	3	-4	8	1.5	4438	-10
Cc1cc(C)cc(NC(=O)C(c2ccccc2)N2CCN(CC(=O)NC3CC3)CC2)c1 (centres undefined)	.	7	4	5	6.8	5472	-20
Brc1ccc(CN2CCSCC2)cc1	9	-3	-1	-7	-1.6	11606	-14
NS(=O)(=O)c1ccc(NC2(C(=O)O)CCCC2)cc1	4	4	-2	-4	1.5	3881	-21
N#C/C(=C\c1ccc[nH]1)C(=O)Nc1ccccc1F	.	1	7	-3	3.1	6152	-87
COc1ccc(C2=NS(=O)(=O)N(C)C(C(=O)Nc3ccc4c(c3)OCO4)=C2)cc1	.	-3	-11	-7	4.0	4878	-12
Cc1ccc(-n2ccnc2SCC(=O)O)cc1C	0	-1	4	2	2.4	4194	-26
CCC(=O)NC(=S)Nc1cccc(Cl)c1N1CCCCC1	-2	-22	16	-2	1.1	8252	-21
CCOC(=O)C1(CC2CCCCO2)CCN(Cc2nc(C(C)C)cs2)CC1 (centres undefined)	-1	5	16	5	5.7	4371	0
COc1ccc2oc(=O)c(C(=O)N3CCN(c4ccccc4C)CC3)cc2c1	-3	-3	3	11	0.2	9799	-133
CC(NC(=O)COC(=O)c1ccc(N2CCCC2=O)cc1)c1ccc(F)cc1 (centres undefined)	.	2	33*	76*	5.0	4391	-15
Cc1sc2nc(C3CC3)nc(NCCNS(=O)(=O)c3ccccc3)c2c1C	-15	-13	6	9	9.5	10502	-29
CCCN(CCC)C(=S)NC1CC2C=CC1C2 (centres undefined)	1	8	-3	-11	1.4	3951	-41
O=C(c1cccc2ccccc12)N1CCN=C1SCc1ccc([N+](=O)[O-])cc1	3	0	2	5	0.5	2244	-10
O=C(NCC(=O)N(CC1CCCO1)C(C(=O)NC1CCCC1)c1cccnc1)c1ccco1 (centres undefined)	7	-3	.	.	5.2	4178	4
CCOc1cc(NC(=O)c2ccccn2)c(OCC)cc1NC(=O)c1ccccc1	9	14	4	5	3.7	4637	-30
Cc1ccc2c(CN3CCOCC3)cc(=O)oc2c1	-8	9	0	0	3.9	.	.
CN(C)C(CNC(=O)C1CCN(S(=O)(=O)c2cccc(Cl)c2Cl)CC1)c1ccccc1 (centres undefined)	-6	0	8	1	1.2	4939	-14
CCCCC1=CC2=CC(=O)C(C)(OC(=O)CC)C(=O)C2=CN1CC(C)C (centres undefined)	-9	5	21	6	9.0	3944	-20
O=C(/C=C/c1ccccc1)NCCc1ccc2c(c1)OCCO2	6	14	-3	4	3.5	1927	-8
(list continues)
SMILES	BJeLR viability	Sa ugtP lethal	Mtb hypoxia inh	Mtb hypoxia inh growth	Sa RN4220 lethal	Autofluor counter	PrP 5UTR inh
COc1cccc(C(=O)Nc2ccc(N(C)C)cc2)c1OC	-7	7	.	.	1.8	2255	-78
Cc1cc(C2=NNC(=NCCc3ccccc3)SC2)c(C)n1CC1CCCO1 (centres undefined)	6	2	-19	-1	7.2	4680	-71
COc1ccc(Oc2c(C(F)(F)F)oc3cc(OCC(=O)O)ccc3c2=O)cc1	1	2	-1	-1	-2.8	4123	-30
COc1ccc(S(=O)(=O)NCc2ccccn2)cc1Cl	3	1	2	7	9.1	2826	-21
O=C(COC(=O)/C=C/c1cn(-c2ccccc2)nc1-c1ccc2c(c1)OCCO2)NC1CCS(=O)(=O)C1 (centres undefined)	3	3	5	-7	2.2	4642	2
CC(=O)O[C@@]12CO[C@@H]1C[C@H](OC1OCC(O)C(O)C1O)[C@@]1(C)C(=O)[C@H](O)C3=C(C)[C@@H](OC(=O)[C@H](O)[C@@H](NC(=O)c4ccccc4)c4ccccc4)C[C@@](O)([C@@H](OC(=O)c4ccccc4)C12)C3(C)C (some centres undefined)	21	-10	.	.	-0.4	5534	-39
CCCCSc1nn[nH]n1	-2	6	7	3	1.2	7043	-17
N#CC1=C2N=C(N)c3ccccc3N2C2=C(C(=O)CCC2)C1c1cccc(Cl)c1 (centres undefined)	-8	3	.	.	9.1	4277	70*
Cc1cc(-c2ccc(N3CCOCC3)cc2)nc2ccccc12	-4	-7	4	3	2.4	2408	-62
COc1ccc(CCNC(=O)COC(=O)Cc2c[nH]c3ccccc23)cc1OC	.	1	11	10	6.1	3413	-15
NC(=O)CNC(=O)[C@@H]1CC2(CC(c3ccccc3)=NO2)CN1C(=O)c1ccc(Br)cc1 (some centres undefined)	-6	.	.	.	.	3146	-18
Cc1ccc(NC(=O)c2oc3c(c2C)C(=O)CC(C)(C)C3)cc1	.	-7	-2	2	1.0	10680	-5
Cc1nnc(SCc2ccc([N+](=O)[O-])cc2)[nH]c1=O	5	6	-6	0	2.0	4562	-5
O=C(NN=Cc1coc2ccccc2c1=O)c1cc2ccccc2o1	.	6	11	3	5.2	.	.
Cc1ccc(N=Cc2c(O)ccc3ccccc23)cc1F	0	1	10	2	4.4	2036	-29
CCOC(=O)c1cc(NC(=O)c2ccc(OC)cc2)c(=O)oc1-c1ccccc1	9	-5	3	2	3.0	22500*	-11
NNC(=O)c1oc2nc(-c3ccco3)cc(-c3ccco3)c2c1N	-3	-11	4	11	8.6	5982	.
CCCc1nc2ccccc2c(C(=O)OCC(=O)NC2CC2)c1CC	.	3	11	5	2.0	4100	-16
Cc1cc(C)c2nc(N(CCCN(C)C)C(=O)c3ccc4c(c3)OCCO4)sc2c1	10	-27	11	8	-7.2	4095	-13
Cc1ccc(CCNC(=O)C2CCN(S(=O)(=O)c3cccc4cccnc34)CC2)cc1	1	4	3	-1	5.6	6243	-28
CCOC(=O)O[C@]1(C(=O)COC(=O)CC)CCC2C3CCC4=CC(=O)C=C[C@]4(C)C3C(O)C[C@@]21C (some centres undefined)	.	2	3	1	10	.	.
CCOC(=O)C1CN(S(=O)(=O)c2ccc(Cl)cc2)c2cc(S(=O)(=O)CC)ccc2O1 (centres undefined)	3	11	11	-1	7.0	3467	-16
O=S(=O)(Nc1ncnc2scc(-c3ccc(F)cc3)c12)c1cc(F)ccc1F	-3	3	12	8	22	3859	-13
CN(C(=O)c1cccc(NC(=O)Cc2ccc(NC(=O)C3CCN(C(=O)CCc4ccccc4)CC3)cc2)c1)C1CCCCC1	.	-1	-13	-8	4.1	3929	-7
CCOC(=O)c1ccc(NC(=O)CSc2nc3ncccc3[nH]2)cc1	8	0	4	3	5.3	10010	-30
Cc1ccc(S(=O)(=O)N2CCC(C(=O)OCC(=O)N(Cc3ccccc3)C(C)(C)C)CC2)cc1C	-10	0	8	2	0.6	4902	-10
CN(CC(=O)Nc1ccc(Cl)c(Cl)c1)C(=O)/C=C/c1ccc(F)cc1	2	-7	-4	5	-3.7	1927	-4
Cc1ccc(S(=O)(=O)N2CCN(C(=O)CN3C(=O)c4ccccc4C3=O)CC2)c(C)c1	.	-1	2	3	1.1	7960	-24
COc1ccc(C(=O)Nc2c(Cl)cc(Cl)cc2C(=O)N2CCOCC2)cc1	-13	0	-1	-3	0.9	4072	-26
COc1cc(/C=C2\C(=N)N3N=C(S(C)(=O)=O)SC3=NC2=O)ccc1OCCOc1ccccc1C	1	-5	.	.	5.5	3513	-21
Cc1ccc(C(=O)CSc2n[nH]c(-c3ccco3)n2)cc1C	-4	2	1	-3	2.4	17185*	-20
CCCCN(C)C(=O)C1CCCN(S(=O)(=O)c2ccc3c(c2)oc(=O)n3C)C1 (centres undefined)	-13	-3	1	4	1.5	5909	-27

At a glance, some entries already given:
SMILES	BJeLR viability	Sa ugtP lethal	Mtb hypoxia inh	Mtb hypoxia inh growth	Sa RN4220 lethal	Autofluor counter	PrP 5UTR inh
Cc1ccc(S(=O)(=O)N2CCN(C(=O)CN3C(=O)c4ccccc4C3=O)CC2)c(C)c1	.	-1	2	3	1.1	7960	-24
COc1ccc(C(=O)Nc2c(Cl)cc(Cl)cc2C(=O)N2CCOCC2)cc1	-13	0	-1	-3	0.9	4072	-26
COc1cc(/C=C2\C(=N)N3N=C(S(C)(=O)=O)SC3=NC2=O)ccc1OCCOc1ccccc1C	1	-5	.	.	5.5	3513	-21
Cc1ccc(C(=O)CSc2n[nH]c(-c3ccco3)n2)cc1C	-4	2	1	-3	2.4	17185*	-20
CCCCN(C)C(=O)C1CCCN(S(=O)(=O)c2ccc3c(c2)oc(=O)n3C)C1 (centres undefined)	-13	-3	1	4	1.5	5909	-27

Rows were taken by chance; any-hit rate near 4%.
